# Assay outcomes deposited in PubChem by National Center for Advancing Translational Sciences (NCATS).
# TRPML1 ag – activates the human TRPML1 channel. TRPML1-expressing cells, Ca2+ dye fluorescence, FDSS; host cell line not named in the record; reference of the full effect not given here. AID 624414. Q9GZU1. 0.12% of 410,000 active. activation, % (concentration not given with the values); in the data active = activation above about 50%; inconclusive = about 30% to 50%; inactive = below about 30%; further: 0% is about no effect; the text of the record puts the active cut at 80%
# Target sequence (Q9GZU1 whole entry, looked up): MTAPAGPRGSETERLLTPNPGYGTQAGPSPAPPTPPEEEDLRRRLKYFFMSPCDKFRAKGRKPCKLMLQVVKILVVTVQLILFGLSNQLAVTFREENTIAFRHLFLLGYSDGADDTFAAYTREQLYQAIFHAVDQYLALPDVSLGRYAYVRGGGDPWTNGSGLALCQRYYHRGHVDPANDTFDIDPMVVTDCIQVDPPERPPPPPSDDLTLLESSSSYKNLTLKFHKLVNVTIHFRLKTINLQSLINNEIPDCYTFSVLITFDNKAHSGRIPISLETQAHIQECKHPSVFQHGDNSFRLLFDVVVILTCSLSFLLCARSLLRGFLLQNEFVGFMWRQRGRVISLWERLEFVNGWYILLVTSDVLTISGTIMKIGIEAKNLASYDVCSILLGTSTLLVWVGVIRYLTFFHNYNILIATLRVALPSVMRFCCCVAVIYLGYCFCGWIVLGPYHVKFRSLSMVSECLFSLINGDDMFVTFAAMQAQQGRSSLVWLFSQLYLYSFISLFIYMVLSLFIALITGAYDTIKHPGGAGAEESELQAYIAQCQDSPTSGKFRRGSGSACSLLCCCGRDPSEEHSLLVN
#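 Cells: TRPML1-DL, 1X Tet inducer, ~16 h at 37 degrees C/5% CO2. Dye: ABD Ca8 no-wash + quencher, 45-90 min RT. Read: 10 s baseline, compound add, 110 s agonist phase; 54-4 EC80 (4uM final), 110 s antagonist phase.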
# ClpP mod – qHTS Assay for Activators of ClpP; 1.9% of 340,000 active; Potency, µM (series often up to 57.5 µM), inactives show at the top dose activity change, negative = active; purified B. subtilis ClpP, FRET peptide cleavage, 20 min; active = well fitted falling curve with a large enough effect; inconclusive = small, poorly fitted or top-dose-only effect; inactive = no such curve, though single readings can be large or run the other way; further: potency means the concentration at half of the fitted maximal effect; the source files actives as falling curves though it sought activators and does not explain the sign; nearly all actives have a fitted effect of over 65% in size; many hits overshoot -100%
# Target sequence (P80244 whole entry, looked up): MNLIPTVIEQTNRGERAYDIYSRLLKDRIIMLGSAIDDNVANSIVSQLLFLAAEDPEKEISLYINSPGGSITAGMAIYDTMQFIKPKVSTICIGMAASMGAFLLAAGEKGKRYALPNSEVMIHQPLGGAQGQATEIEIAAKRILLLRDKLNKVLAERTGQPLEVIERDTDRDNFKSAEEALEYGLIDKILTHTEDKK
#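 Purified B. subtilis ClpP, 10 microg/mL final in Tris/HCl pH8 with KCl, BSA, glycerol and Tween-20, cleaved an Abz/nitrotyrosine-quenched decapeptide. Fluorescence (ex 320, em 430) was read at 0 and 20 min at room temperature. Delta was normalized to 5.8 microM ADEP and DMSO/no-enzyme controls.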
# Menin-MLL FL inh – inhibitors of human menin-MLL interaction, wild-type MLL peptide; Fluorescence polarization, fluorescein-MLL peptide displacement from menin; FP activity change, % at 61.4 µM; 290,000 tested, under 10 active; AID 1766; inconclusive = falling polarisation curve, or a change in total fluorescence; inactive = total fluorescence flat and polarisation flat or rising; no compound was filed as active; the % refers to the polarisation; negative = inhibition;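 further: % of control where 0% means no effect; inhibitors lower the polarisation; unlabelled MLL peptide was the positive control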
# TRPML1 inh – inhibitors of human TRPML1 channel | TRPML1-inducible cells, Ca2+ dye fluorescence, FDSS; active compounds read low; inhibition of EC80 agonist-evoked calcium signal | activity change, negative = inhibition, % (test concentration not listed) | 0.02% of 390,000 active | AID 624415; in the data active means activity change below about -50%; inconclusive means about -30% to -50%; inactive means above about -30%;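 further: stimulus is agonist 54-4 at its EC80 concentration; on the % scale 0 is the no-effect control and ±100 the full control effect; compound concentration not given in the record; the text of the record puts the active cut at -80%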
#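 Tet-induced TRPML1-DL cells loaded with Ca8 no-wash calcium dye were read kinetically on FDSS. Compound addition was followed by EC80 agonist 54-4 (4 uM final); inhibition was read over 110 s.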
# gsp antag – gsp mutant antagonism. 0.4% of 340,000 active. Potency, µM (doses to about 76.9 µM), inactives show at the highest dose activity change, negative = inhibition, actives largely listed as inhibitors. gsp-mutant cells, cAMP HTRF, 30 min; control for the full effect not named in the record; active = falling curve of any shape with a large fitted effect; inconclusive = falling curve, mostly with a smaller effect; inactive = flat or rising curve; cell line not stated here;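 further: intracellular cAMP measured with PDE inhibitor Ro 20-1724 present during compound exposure; potency means the concentration at half of the fitted maximal effect; on the % scale 0 is the no-effect control and ±100 the full control effect; nearly all actives have a fitted effect of over 65% in size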
#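 Cells, 2000/well, grown 16–24 h in DMEM 10% FBS with 0.5 mg/ml G418, then compounds plus […] (300 uM addition stock), 30 min at 37C. cAMP read by HTRF (cAMP-d2 and anti-cAMP antibody-K in lysis buffer) after 30 min RT.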
# gsp agonist – activates gsp, the McCune-Albright syndrome mutation | gsp mutant cells, cAMP HTRF, 30 min; control for the full effect not named in the record | Potency, µM (series often up to 76.9 µM), for inactives: top-dose activation (cAMP increase), most hits filed as activators | 0.13% of 340,000 active; active = well fitted activation curve with a large enough effect; inconclusive = small, poorly fitted or top-dose-only effect, or another doubt; inactive = no such curve, though single readings can be large or run the other way; cell line not stated here;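 further: phosphodiesterase inhibitor Ro 20-1724 added with compounds to block cAMP breakdown; potency means the concentration at half of the fitted maximal effect; nearly all actives have a fitted effect of over 60% in size; about a fifth of the inactives were tested at one dose only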
#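 Cells stably selected in G418 were plated at 2000/well, grown 16-24 hr, then given compounds in DMSO with the PDE inhibitor […] (300 uM solution added) for 30 min at 37C; cAMP was read by HTRF.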
# Numbers without * were called inactive; ? = inconclusive; . = not tested or not shown; & = joins results of further samples; [ ] = remark or other dose. Random draw from the library; overall some 2.1% were active at least once.
SMILES,TRPML1 ag,ClpP mod,Menin-MLL FL inh,TRPML1 inh,gsp antag,gsp agonist
Cc1cccc(C(=O)OCC(=O)NCC(C)C)c1O,-0.4,.,-1.9,9,5%,11%[15.4 µM]
O=C(/C=C/Nc1cccc(O)c1)c1ccccc1,-0.5,-4.1%,13,-6,-20%,5%
Cc1nc2c(sc(=S)n2Cc2ccco2)c(=O)n1CC(=O)Nc1cc(F)ccc1F,0.1,2.6%,-3.4,-15,-11%,-44%[inhibitor]
CC(C)(C)OC(=O)N1CCC(NC(=O)c2[nH]cnc2C(=O)Nc2ccccc2F)CC1,1.2,2.0%,.,7,.,-20%
Cc1cc(C(F)F)n2nc(C(=O)Nc3sc4c(c3C#N)CCC(C)C4)nc2n1 (stereo unspecified),0.3,-2.4%,4.1,11,7%,-5%
CCOc1ccccc1N=Cc1c(O)c2ccccc2oc1=O,0.5,-0.4%,0.2,-3,-12%,-1%
Cc1nc(C)c(-c2ccccc2)c(=O)[nH]1,-0.2,0.9%,-0.1,0,-5%,-4%
CCOC(=O)c1sc2ncn(/N=C/c3ccc(O)cc3)c(=O)c2c1C,-0.5,.,1.4,-2,-33%,?
Cc1nn(-c2ccccn2)c2nc(-c3cccs3)cc(C(=O)N3CCOCC3)c12,1.7,?,-0.3,-16,1%,23%
Cc1ccc(-c2nc3sc(C(N)=O)c(N)c3c3c2CCCC3)cc1,0.4,-20%,-1.4,34,-21%,?
S=C(NC1CCCCC1)c1ccc2c(c1)OCO2,1.1,-1.4%,3.0,-4,-1%,-27%
Cc1ccc(OC(=O)CSc2nnc(-c3ccc4c(c3)OCO4)o2)cc1,2.1,2.6%,.,3,.,.
COc1ccc(N2C(=O)CCC(C(=O)c3ccccc3)=C2C)cc1,-0.7,0.4%,2.0,13,-10%,?
Cc1ccc(SCC(=O)N2N=CCC2c2ccccc2)cc1 (stereo unspecified),0.4,.,1.5,6,-9%,22%
CCOc1ccccc1NC(=O)COC(=O)CCOc1cc(C)ccc1C,1.0,1.4%,.,4,3%,-46%[inhibitor]
CCc1cccc(NC(=O)c2ccc(CN3C(=O)C(C)=C(c4ccc(OC)cc4)S3(=O)=O)cc2)c1,2.3,4.0%,.,24,.,.
O=C(c1ccc(Cl)c(S(=O)(=O)N2CCCC2)c1)N1CCN(Cc2ccccc2)CC1,0.2,1.0%,.,-8,-29%,23%
CCCOc1ccc(-c2csc3nc[nH]c(=O)c23)cc1,.,-2.7%,2.9,.,-18%,-29%
CN1CCN(c2nc(Nc3ccccc3)nc(N)c2[N+](=O)[O-])CC1,-0.5,0.6%,-4.3,4,-2%,-3%[15.4 µM]
O=C1CCC(C(=O)N2CCc3ccccc3C2)CN1CCCN1CCOCC1 (stereo unspecified),1.0,0.1%,.,5,12%,-59%[inhibitor]
CCOC(=O)c1c(NC(=O)COc2ccc(Cl)cc2Cl)sc2c1CCCCC2,-0.9,1.5%,.,-3,.,.
Nc1cc(=O)[nH]c(SCC(=O)Nc2cccc([N+](=O)[O-])c2)n1,0.2,-0.6%,1.5,-17,8%,22%
COc1cccc(C(C)=NNc2ccc([N+](=O)[O-])cc2[N+](=O)[O-])c1OC,-0.5,0.3%,.,31,.,18%
Cc1ccc(Nc2nnc(SCC(=O)NCCN3C(=O)CSC3=O)s2)cc1C,-1.3,-0.4%,3.2,4,-16%,-27%
O=C(N/N=C/c1cc(Br)cc(Br)c1O)c1cccc(S(=O)(=O)N2CCOCC2)c1,3.6,.,?,12,-2%,-25%[15.4 µM]
NC(=O)c1ccsc1NC(=O)COC(=O)[C@@H]1CCCN1C(=O)c1cccs1,0.0,.,.,50,-3%,16%
CC1CCN(C(=O)c2ccc(NS(C)(=O)=O)cc2)CC1,-0.5,0.5%,3.4,14,2%,-37%[inhibitor]
O=C(Cc1ccc([N+](=O)[O-])cc1)Nc1ccc2c(c1)OCO2,-0.4,.,-0.7,12,?,-16%
CC(NC(=O)c1ccc2ccccc2n1)c1ccc(S(N)(=O)=O)cc1 (stereo unspecified),-0.5,.,.,4,-13%,15%[15.4 µM]
Cc1ccc(C)c(CN2C(=O)c3ccccc3S(=O)(=O)c3ccc(C(=O)NCCC4=CCCCC4)cc32)c1,0.7,-4.3%,.,16,.,.
Cc1cccc(NC(=S)NCc2ccc3[nH]c4c(c3c2)CCCC4)c1,-0.5,0.4%,-0.7,6,0%,-56%[inhibitor]
Cc1cc(NC(=O)CC(F)(F)F)n(-c2ccccc2)n1,-0.3,.,-5.3,-3,9%,0%
CC(=O)c1ccc(-n2nnnc2SCC(=O)N2CCc3ccccc3C2)cc1,2.5,-2.3%,0.7,-12,-7%,-10%
CSc1ccc(CN(C)CC(=O)Nc2ccc(NC(C)=O)cc2)cc1,0.6,.,1.0,0,5%,10%[15.4 µM]
COc1ccc(S(=O)(=O)N(C)C[C@@H]2Oc3c(NS(C)(=O)=O)cccc3C(=O)N([C@@H](C)CO)C[C@H]2C)cc1,0.1,-2.1%,.,-2,2%,.
CCNc1nc(Oc2ccc(=O)n(C)n2)nc(N2CCOCC2)n1,-0.3,-0.3%,-1.4,1,1%,-3%
COc1ccc(OC(C)C(=O)Nc2ccccc2C(F)(F)F)cc1 (stereo unspecified),0.2,1.4%,1.2,9,1%,0%[15.4 µM]
COc1ccc(C(=O)NCc2nnc(SCC(=O)Nc3cccc(C(F)(F)F)c3)o2)cc1OC,0.6,-2.4%,6.4,6,2%,?
CC(C)(C)c1nn2cnnc2n(/N=C/c2ccccc2)c1=O,-0.1,-1.4%,0.3,-17,0%,12%
COc1ccccc1C(=O)Nc1ccc2c(c1)OCO2,2.4,0.0%,-2.1,8,4%,-2%
COCCn1nnnc1C(c1ccc(Cl)cc1)N1CCSCC1 (stereo unspecified),-0.5,0.4%,2.6,2,1%,-1%
O=C1C(Cl)=C(Nc2ccc(O)cc2)C(=O)c2ccccc21,2.7,.,2.2,7,-24%,-10%[15.4 µM]
O=C(OCC(=O)N1CCOCC1)c1cc(F)c(F)cc1Cl,0.7,.,.,11,5%,-26%
CCOC(=O)Cn1c2ccccc2c2nc(C)sc21,-0.3,.,-3.1,29,19%,-5%[15.4 µM]
COc1cc(/C=C/c2cccc[n+]2C)ccc1OCC(=O)Nc1cccc(Cl)c1,0.5,.,.,-5,7%,16%
Cc1ccc(-n2ncc3c(NC4CCCCC4)ncnc32)cc1,0.3,?,.,66,.,.
C=C(C)CN1C(=O)C(O)(CC(=O)c2ccc3c(c2)OCCO3)c2ccccc21 (stereo unspecified),-0.3,-0.6%,-1.2,3,0%,-7%
COc1ccc(NC(=O)c2[nH]ncc2[N+](=O)[O-])cc1,2.0,-2.4%,0.7,3,-3%,11%
CCC/C(C#CCCN1C(=O)c2ccccc2C1=O)=C1/c2ccccc2C(=O)N1c1ccccc1,0.6,2.0%,.,-1,-5%,.
O=C(CN1CCN(c2ccccc2)CC1)Nc1ccccc1C(F)(F)F,0.4,0.3%,1.3,?,-5%,21%
COc1ccc(CNc2nc(-c3cccnc3)nn2C(=O)c2ccco2)cc1,3.0,36%,2.1,10,-9%,16%
O=C(CSCc1c(Cl)cccc1Cl)Nc1ccccc1-c1ccccc1,0.7,-0.4%,2.8,20,-4%,2%[15.4 µM]
Cc1cc(NC(=O)COC(=O)C2CCN(S(=O)(=O)c3ccccc3)CC2)c([N+](=O)[O-])cc1C,0.1,-3.7%,.,1,-7%,-7%[15.4 µM]
CN(C)S(=O)(=O)c1cc(NC(=O)CNCc2ccc(F)cc2)ccc1Cl,.,0.5%,-25,.,5%,-37%[inhibitor]
O=S1(=O)CCO[C@H]2Cc3ccccc3[C@H]2N1Cc1cccc(Cl)c1,0.9&-0.4,0.8%&0.0%,-0.4,20,7%,-40%[inhibitor]
O=C(c1ccco1)N1CCN(C(=O)C2CCN(S(=O)(=O)c3cccs3)CC2)CC1,3.0,-3.7%,0.0,-10,-7%,-4%
CCC(C)/C(C)=N/NC(=O)c1ccccc1OCCOc1ccccc1 (stereo unspecified),0.2,.,-0.2,2,9%,29%
Cc1c(C(=O)NCc2cccnc2)oc2ccc(S(=O)(=O)N3CC(C)CC(C)C3)cc12 (stereo unspecified),-0.1,-0.2%,2.9,-7,3%,?
CC(=O)Nc1cc(C(=O)NCc2ccc(C)cc2)ccc1S(=O)(=O)c1ccc(Cl)cc1,1.9,-4.2%,.,5,.,.
CC1=Cc2ccccc2C(C#N)N1C(=O)c1ccccc1 (stereo unspecified),1.4,.,-4.8,-12,-2%,1%

# Reprinted from the part before: two compounds; new compounds follow.
SMILES,TRPML1 ag,ClpP mod,Menin-MLL FL inh,TRPML1 inh,gsp antag,gsp agonist
CC(=O)Nc1cc(C(=O)NCc2ccc(C)cc2)ccc1S(=O)(=O)c1ccc(Cl)cc1,1.9,-4.2%,.,5,.,.
CC1=Cc2ccccc2C(C#N)N1C(=O)c1ccccc1 (stereo unspecified),1.4,.,-4.8,-12,-2%,1%
O=C(c1cn(-c2ccccc2)nc1-c1ccccc1)N1CCOCC1,0.9,-2.7%,-1.7,-8,10%,-43%[inhibitor]
COc1ccc(C(=O)Nc2ccc(NC(=O)c3cccc(OC)c3)cn2)cc1,2.8,.,7.0,14,3%,10%
COc1ccc(C(CC(=O)O)n2cnnn2)cc1 (stereo unspecified),0.3,.,-0.5,10,8%,-1%
CC(Oc1ccc(C#N)cc1)C(=O)c1ccc(F)c(F)c1 (stereo unspecified),2.2,.,-0.1,2,-6%,-2%
CC1CN(C/C(=N\O)C23CC4CC(CC(C4)C2)C3)CC(C)O1 (stereo unspecified),-1.3,0.3%,-5.3,-16,1%,4%[15.4 µM]
Cn1c(=O)[nH]c(=O)c2c1nc(SCCC(=O)O)n2Cc1cccc(Br)c1,-0.9,.,-0.3,5,6%,17%
COc1ccc(N2CSC3=C(C#N)C(c4ccc(OC)c(OC)c4)CC(=O)N3C2)c(OC)c1 (stereo unspecified),1.4,3.3%,12,18,-7%,-23%
Cc1ccc(NC2=NCC(Cc3ccc(Br)cc3)S2)cc1 (stereo unspecified),-0.4,.,0.3,36,4%,?
CC1(C)C/C(=N\O)C(C(O)c2cccc([N+](=O)[O-])c2)C(C)(C)N1 (stereo unspecified),0.1,.,-1.4,13,7%,-7%[15.4 µM]
Cc1ccc(C(=O)Nc2nc(-c3ccccn3)cs2)cc1S(=O)(=O)N1CCOCC1,-0.8,-1.2%,.,6,-25%,-43%[inhibitor]
Cn1cc(-c2cc3n(n2)CCC(=O)N3CCCC(=O)Nc2ccccc2Cl)c2ccccc21,1.3,-4.2%,.,6,.,.
CC1C(=O)Nc2ccccc2N1C(=O)c1ccc(Cl)c(Cl)c1 (stereo unspecified),1.9,.,-1.5,4,0%,-54%
